Source: PubChem BioAssay (ICCB-Longwood Screening Facility, Harvard Medical School)
Choline anaer gr = inhibitors of anaerobic choline-dependent gram-negative bacterial growth; Gram-negative bacterium anaerobic choline minimal medium, absorbance growth; stronger effect = lower value; many inactives read as strong as hits in the columns shown; calls only; 0.2% of 55,000 active; AID 1963822;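 active = growth z-score on choline under -2 at 7 or 20 h with little or no fall on glycerol, limits in tiers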;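 note: stock transfer was 300 nL into about 50 µL; the organism is E. coli; final concentration not given here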
Choline anaer gr early = further read-out of Choline anaer gr, marked with its call; z-score; measured here: choline growth z-score, timepoint 1;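 score of optical density at 7 h as mean of two plates; lower means less growth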
* marks the source's active call; other numbers are inactive results; & = joins results of further samples. This is a subset, so the mix of outcomes need not match the whole.

O=C(CN1C(=O)c2ccccc2C1=O)Nc1ccc2c(c1)CCC(=O)N2Cc1ccccc1 was read as Choline anaer gr inactive and Choline anaer gr early 0.2.
For CCN1CCN(C(=O)NC(C(=O)NC2C(=O)N3C2SC(C)(C)C3C(=O)O)c2ccccc2)C(=O)C1=O (stereo unspecified) the results were Choline anaer gr inactive and Choline anaer gr early 0.22.
`C=CCN(CC=C)S(=O)(=O)c1ccc(C(=O)Nc2sc3c(c2C(=O)NC)CCC3)cc1` gave Choline anaer gr inactive and Choline anaer gr early 0.01.
For CCCNC(=O)Cn1c(-n2nc(C)cc2C)nc2c(c1=O)CCCC2 the results were Choline anaer gr inactive and Choline anaer gr early 0.25.
`CC1=C(C(=O)Nc2ccc(Cl)cc2)C(c2ccc(Br)cc2)n2ncc(C(=O)Nc3cccc(C)c3)c2N1` (stereo unspecified) gave Choline anaer gr inactive and Choline anaer gr early -1.1.
For O=c1c2cc3c(cc2nc(SCc2nc(-c4cccc(F)c4)no2)n1Cc1ccccc1)OCO3 the results were Choline anaer gr inactive and Choline anaer gr early -0.64.
For COc1ccc(NC(=O)c2cccc(-c3nc(-c4ccc(F)cc4)no3)c2)cc1OC the results were Choline anaer gr inactive and Choline anaer gr early -0.62.
Screening Cc1cccc(C(=O)Nc2c(C)nc3ccccn3c2=O)c1 returned Choline anaer gr inactive and Choline anaer gr early -0.45.
For CCOC(=O)c1cc2c(=O)n(C)c3ccccc3c2s1 the results were Choline anaer gr inactive and Choline anaer gr early 0.71.
Cc1noc(C)c1C1CCCN1S(=O)(=O)c1ccc(Cl)s1 (stereo unspecified) was read as Choline anaer gr inactive and Choline anaer gr early -0.06.
For O=C(C1CCC(=O)N1S(=O)(=O)c1ccccc1)N1CCc2ccccc21 (stereo unspecified) the results were Choline anaer gr inactive and Choline anaer gr early -0.34.
Screening COc1cccc(-c2noc(-c3cccn4c(=O)c5ccccc5nc34)n2)c1OC returned Choline anaer gr inactive and Choline anaer gr early 0.24.
`COc1cccc(NC(=O)c2cccn3c(-c4ccc(F)cc4)nnc23)c1` gave Choline anaer gr inactive and Choline anaer gr early 1.2.
`CC(C)NC[C@H](O)c1ccc(O)c(O)c1` gave Choline anaer gr inactive and Choline anaer gr early 0.63&0.68&-0.57.
Screening CCc1nc(-c2csc(S(=O)(=O)N3CCCC(C(=O)N4CCOCC4)C3)c2)no1 (stereo unspecified) returned Choline anaer gr inactive and Choline anaer gr early -0.67.
CCOC(=O)C1CCCN(Cc2cn3cc(F)ccc3n2)C1 (stereo unspecified) was read as Choline anaer gr inactive and Choline anaer gr early -0.26.
For CCc1ccc(C(=O)N2CCC(c3nc4c(nnn4Cc4ccc(F)cc4)c(=O)[nH]3)CC2)cc1 the results were Choline anaer gr inactive and Choline anaer gr early -0.65.
`CCN1CCc2c(sc(NC(=O)CCc3ccccc3)c2-c2nc3ccccc3s2)C1` gave Choline anaer gr inactive and Choline anaer gr early 0.94.
COc1ccc(-c2oc3ccc(OC)cc3c2C(=O)Nc2ccc3c(c2)OCCO3)cc1 was read as Choline anaer gr inactive and Choline anaer gr early 2.
`CCc1ccc(NC(=O)N2CCN(S(=O)(=O)c3ccc4c(c3)NC(=O)CO4)CC2)cc1` gave Choline anaer gr inactive and Choline anaer gr early -1.5.
CC1CN(C(=O)CCC(=O)N2CCN(c3ccccn3)CC2)c2ccccc2O1 (stereo unspecified) was read as Choline anaer gr inactive and Choline anaer gr early -1.8.
Screening Cc1ccc(Cl)cc1NC(=O)CCc1nc(-c2ccc(S(=O)(=O)N3CCCC3)cc2)no1 returned Choline anaer gr inactive and Choline anaer gr early 1.7.
For CCOC(=O)C1CCN(C(=O)CSc2c3c(nc4ccccc24)CCC3)CC1 the results were Choline anaer gr inactive and Choline anaer gr early -0.97.
CCCn1c(=O)[nH]c2cc(-c3noc(/C=C/c4ccccc4Cl)n3)ccc21 was read as Choline anaer gr inactive and Choline anaer gr early -0.86.
`O=C(Cc1ccc(F)cc1)Nc1cccc2nsnc12` gave Choline anaer gr inactive and Choline anaer gr early -0.31.
Screening CN(Cc1ccc(Cl)cc1)C(=O)CCc1nc(-c2cc3ccccc3[nH]c2=O)no1 returned Choline anaer gr inactive and Choline anaer gr early -0.09.
Screening Cc1nc(N2CCCC2)c2c(C)c(C(=O)N3CCCC3)sc2n1 returned Choline anaer gr inactive and Choline anaer gr early 0.11.
For Cc1ccc2ncnc(NC(CO)C(=O)O)c2c1 (stereo unspecified) the results were Choline anaer gr inactive and Choline anaer gr early -0.64.
`COC(=O)c1sccc1NC(=O)Cn1c(=O)nc(-c2ccccc2F)c2cc(Cl)ccc21` gave Choline anaer gr inactive and Choline anaer gr early -0.3.
For Cc1nn(-c2ccc3nnc(C)n3n2)c2c1C(c1cccc(OCc3ccc(F)cc3)c1)CC(=O)N2 (stereo unspecified) the results were Choline anaer gr inactive and Choline anaer gr early -0.42.
Screening Cc1nc(-c2cc(S(=O)(=O)N3CCC4(CC3)OCCO4)c(C)s2)no1 returned Choline anaer gr inactive and Choline anaer gr early 0.09.
For CCC(C)NC(=O)c1ccc(Cn2c(=O)c3cc(OC)c(OC)cc3n(CC(=O)NCCC(C)C)c2=O)cc1 (stereo unspecified) the results were Choline anaer gr inactive and Choline anaer gr early 0.87.
CCSc1nn(CC(=O)Nc2ccc(C)cc2C)c(N)c1S(=O)(=O)c1ccc(OC)cc1 was read as Choline anaer gr inactive and Choline anaer gr early 0.54.
Screening COc1cc(=O)n(-c2ccc(F)cc2)nc1C(=O)NC(c1ccccc1)c1ccccc1 returned Choline anaer gr inactive and Choline anaer gr early 0.12.
For O=C(CSc1nnc(-c2cccnc2)o1)NCC1CCCO1 (stereo unspecified) the results were Choline anaer gr inactive and Choline anaer gr early 0.16.
Cc1cccc(C)c1NC(=O)CCS(=O)(=O)c1ccc2c(c1)NC(=O)CS2 was read as Choline anaer gr inactive and Choline anaer gr early -1.4.
`COC(=O)c1ccc(C2Nc3ccc(Br)cc3[C@H]3OCC[C@@H]23)cc1` (stereo partly specified) gave Choline anaer gr inactive and Choline anaer gr early -0.36.
For CCN1CCN(CCCNC(=O)C2=C(C)C(=O)OC23CCN(C(C)=O)CC3)CC1 the results were Choline anaer gr inactive and Choline anaer gr early 0.34.
For CC(C)c1ccc(S(=O)(=O)Nc2cc(C(=O)O)ccc2N(C)C)cc1 the results were Choline anaer gr inactive and Choline anaer gr early -1.8.
`Cc1ccc(-c2onc(C)c2C)cc1S(=O)(=O)CCC(=O)N1CCN(C)CC1` gave Choline anaer gr inactive and Choline anaer gr early 0.01.

Next section, overlapping the part above by 2 compounds.
For CC(C)c1ccc(S(=O)(=O)Nc2cc(C(=O)O)ccc2N(C)C)cc1 the results were Choline anaer gr inactive and Choline anaer gr early -1.8.
`Cc1ccc(-c2onc(C)c2C)cc1S(=O)(=O)CCC(=O)N1CCN(C)CC1` gave Choline anaer gr inactive and Choline anaer gr early 0.01.
CCOc1ccccc1NC(=O)C1CCN(c2ncnc3onc(-c4ccc(F)cc4)c23)CC1 was read as Choline anaer gr inactive and Choline anaer gr early 0.06.
For COc1ccc(C2c3c(oc4cc(C)cc(C)c4c3=O)C(=O)N2CC2CCCO2)cc1OC (stereo unspecified) the results were Choline anaer gr inactive and Choline anaer gr early 0.63.
For O=C(O)CCCN1CCC(OC(c2ccc(Cl)cc2)c2ccccn2)CC1 (stereo unspecified) the results were Choline anaer gr inactive and Choline anaer gr early -0.41.
For CCOC(=O)CC1COc2cc(C)ccc2N1Cc1ccc(C)cc1 (stereo unspecified) the results were Choline anaer gr inactive and Choline anaer gr early -1.1.
For Cc1ccc(C(=O)C(C)n2nc3n(C)c(=O)c4ccc(C(=O)NC5CCCC5)cc4n3c2=O)cc1C (stereo unspecified) the results were Choline anaer gr inactive and Choline anaer gr early -0.37.
`CCOc1ccccc1NC(=O)N1CC(C)Oc2ccc(Cl)cc21` (stereo unspecified) gave Choline anaer gr inactive and Choline anaer gr early 1.1.
For Cc1c(-c2nnc(C(=O)NC3CCC(C)CC3)o2)oc2c(C)cccc12 (stereo unspecified) the results were Choline anaer gr inactive and Choline anaer gr early 1.1.
Screening CN(C)C(=O)c1csc2nc(-c3ccc(NC(=O)Cc4cccc(F)c4)cc3)cn12 returned Choline anaer gr inactive and Choline anaer gr early 0.38.
`COCCNC(=O)c1cn2c(n1)COCC2` gave Choline anaer gr inactive and Choline anaer gr early 0.13.
Screening CC(C)CNS(=O)(=O)c1ccc(N2C(=O)CCS2(=O)=O)cc1 returned Choline anaer gr inactive and Choline anaer gr early -0.03.
Cc1ccc2c(c1)N(C(=O)Cn1c(=O)n(CCCCC(=O)NC(C)C)c(=O)c3ccccc31)CCO2 was read as Choline anaer gr inactive and Choline anaer gr early 0.58.
O=C(Nc1ccc2c(c1)OCCO2)c1ccc(Cn2c(=O)c3cccn3c3cccnc32)cc1 was read as Choline anaer gr inactive and Choline anaer gr early 0.99.
CCN(CC)CCNC(=O)C1Cc2cc(S(=O)(=O)N3CCOCC3)ccc2N1C(C)=O (stereo unspecified) was read as Choline anaer gr inactive and Choline anaer gr early -0.04.
Cc1nn(CC(=O)N2CCCC2)c(C)c1S(=O)(=O)N1CCCC(C(=O)N2CCOCC2)C1 (stereo unspecified) was read as Choline anaer gr inactive and Choline anaer gr early -0.29.
`COC(=O)c1c(C)[nH]c(C(=O)N2CCC(CC(=O)N3CCN(c4ccccc4)CC3)CC2)c1C` gave Choline anaer gr inactive and Choline anaer gr early -0.78.
CCc1ccc(NC(=O)N2CCC(C)(C(=O)NCc3ccccc3)CC2)cc1 was read as Choline anaer gr inactive and Choline anaer gr early 0.48.
`CCN(CC)C(=O)c1ccc(-c2nc3cc(NS(=O)(=O)c4ccc(C)cc4C)ccc3n2C)cc1` gave Choline anaer gr inactive and Choline anaer gr early 0.
For C=C1C[C@H](O)[C@H](C/C=C\CCCC(=O)O)[C@H]1/C=C/[C@@H](O)CCCCC the results were Choline anaer gr inactive and Choline anaer gr early -0.26.
Screening Clc1ccccc1-c1ccc(CNc2ncn[nH]2)o1 returned Choline anaer gr inactive and Choline anaer gr early -0.29.
O=c1c2sc3ncccc3c2nc(SCc2cccc(Br)c2)n1CC1CCCO1 (stereo unspecified) was read as Choline anaer gr inactive and Choline anaer gr early 1.

3 entries drawn at random from the list so far:
For O=C(O)CCCN1CCC(OC(c2ccc(Cl)cc2)c2ccccn2)CC1 (stereo unspecified) the results were Choline anaer gr inactive and Choline anaer gr early -0.41.
`CCOc1ccccc1NC(=O)N1CC(C)Oc2ccc(Cl)cc21` (stereo unspecified) gave Choline anaer gr inactive and Choline anaer gr early 1.1.
For COc1ccc(C2c3c(oc4cc(C)cc(C)c4c3=O)C(=O)N2CC2CCCO2)cc1OC (stereo unspecified) the results were Choline anaer gr inactive and Choline anaer gr early 0.63.

Further entries follow:
For CCCCC/C=C/C=C1/C(=O)C[C@H](O)[C@@H]1C/C=C\CCCC(=O)O the results were Choline anaer gr inactive and Choline anaer gr early -1.
Screening Cc1ccc(C(=O)NCCc2csc3nc(-c4ccccc4C)nn23)cc1 returned Choline anaer gr inactive and Choline anaer gr early -0.13.
For COc1cc(OC)c(NC(=O)C2CCCN(C(=O)c3cc(-c4cccnc4)n[nH]3)C2)cc1Cl (stereo unspecified) the results were Choline anaer gr inactive and Choline anaer gr early 0.19.
`Cc1nn(-c2nc3ccc(Br)cc3s2)c2c1C(c1cc(Cl)ccc1F)CC(=O)N2` (stereo unspecified) gave Choline anaer gr inactive and Choline anaer gr early -0.92.
Cc1ccccc1NC(=O)CN1C(=O)CC(c2ccccc2)=Nc2ccccc21 was read as Choline anaer gr inactive and Choline anaer gr early -0.13.
COc1ccc(N(C(=O)c2cccc(C)c2)S(=O)(=O)c2ccc3c(c2)n(C)c(=O)n3C)cc1 was read as Choline anaer gr inactive and Choline anaer gr early -0.24.
Screening O=C(NCc1noc(C2CCCC2)n1)c1ccc(F)cc1 returned Choline anaer gr inactive and Choline anaer gr early 0.51.
Screening CCCCNC(=O)C1CCN(c2cc(C)nc3c(-c4ccc(OC)c(OC)c4)c(C)nn23)CC1 returned Choline anaer gr inactive and Choline anaer gr early 1.4.
For CC(=O)Nc1ccc(CC(=O)N2CCc3cc(-c4noc(C)n4)ccc32)cc1 the results were Choline anaer gr inactive and Choline anaer gr early 0.11.
For CCC1CCCCN1C(=O)Cn1c(=O)n(Cc2ccc(F)cc2)c(=O)c2c1c(C)nn2CC (stereo unspecified) the results were Choline anaer gr inactive and Choline anaer gr early -0.18.
CCn1cc(C)c(C(=O)O)c1CC(=O)N1CCN(c2ccccn2)CC1 was read as Choline anaer gr inactive and Choline anaer gr early -1.3.
Screening COc1cccc(N2CCN(C(=O)CCCn3nc(C)c4sc5ccccc5c4c3=O)CC2)c1 returned Choline anaer gr inactive and Choline anaer gr early 0.47.
CCC(C)NC(=O)c1nnc(-c2oc3c(C)cccc3c2C)o1 (stereo unspecified) was read as Choline anaer gr inactive and Choline anaer gr early 2.
O=c1ccc(-c2ccc(F)cc2)nn1CCc1nc(-c2ccc(Cl)cc2)no1 was read as Choline anaer gr inactive and Choline anaer gr early -0.04.
CCOc1ccc(N2C(=O)CN(Cc3ccccc3Cl)[C@H]3CS(=O)(=O)C[C@H]32)cc1 was read as Choline anaer gr inactive and Choline anaer gr early 1.2.
O=C(c1ccc2c(c1)OCO2)N1CCN(c2ccc(-c3noc(C4CC4)n3)cc2)CC1 was read as Choline anaer gr inactive and Choline anaer gr early 0.62.
Cn1c(=O)c(-c2noc(CCC(=O)Nc3ccc(F)cc3F)n2)nn(-c2ccc(F)cc2)c1=O was read as Choline anaer gr inactive and Choline anaer gr early 0.96.

Among those listed so far, these have bromine.
`CC1=C(C(=O)Nc2ccc(Cl)cc2)C(c2ccc(Br)cc2)n2ncc(C(=O)Nc3cccc(C)c3)c2N1` (stereo unspecified) gave Choline anaer gr inactive and Choline anaer gr early -1.1.
`COC(=O)c1ccc(C2Nc3ccc(Br)cc3[C@H]3OCC[C@@H]23)cc1` (stereo partly specified) gave Choline anaer gr inactive and Choline anaer gr early -0.36.
O=c1c2sc3ncccc3c2nc(SCc2cccc(Br)c2)n1CC1CCCO1 (stereo unspecified) was read as Choline anaer gr inactive and Choline anaer gr early 1.
`Cc1nn(-c2nc3ccc(Br)cc3s2)c2c1C(c1cc(Cl)ccc1F)CC(=O)N2` (stereo unspecified) gave Choline anaer gr inactive and Choline anaer gr early -0.92.
